2A StopGo: lowers the luciferase signal of an FMDV 2A StopGo reporter; human cells with a luciferase reporter of 2A StopGo recoding; control for the full effect not named in the record; Potency, µM (series often up to 57.9 µM), for the others: at the top dose signal change, negative = less light; hit rate 1.2% among 410,000; AID 1159524; active = well fitted falling curve with a large enough effect; inconclusive = small, poorly fitted or top-dose-only effect; inactive = no such curve, though single readings can be large or run the other way; tested in HEK293T cells; also: % is scaled to controls: 0 for no effect and ±100 for the full control effect; nearly all actives have a fitted effect of over 45% in size; luciferase light after 4 h
Cruzain noTriton: inhibitors of Trypanosoma cruzi cruzain without detergent; purified cruzain, Z-FR-AMC fluorescence, no detergent; Potency, µM, without a hit: max response, negative = inhibition, hits mostly inhibitors; hit rate 2.3% among 200,000; P25779; AID 1476; active = well fitted curve in the direction sought with a large enough effect; inconclusive = small, poorly fitted or top-dose-only effect, or another doubt; inactive = no such curve, though single readings can be large; an effect the other way counts as inactive or inconclusive;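 also: plate controls were enzyme without inhibitor for no effect and buffer without enzyme for full effect; nearly all actives have a fitted effect of over 40% in size; top concentration of the series not given in the record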
Target sequence (P25779 123-467 limits assumed): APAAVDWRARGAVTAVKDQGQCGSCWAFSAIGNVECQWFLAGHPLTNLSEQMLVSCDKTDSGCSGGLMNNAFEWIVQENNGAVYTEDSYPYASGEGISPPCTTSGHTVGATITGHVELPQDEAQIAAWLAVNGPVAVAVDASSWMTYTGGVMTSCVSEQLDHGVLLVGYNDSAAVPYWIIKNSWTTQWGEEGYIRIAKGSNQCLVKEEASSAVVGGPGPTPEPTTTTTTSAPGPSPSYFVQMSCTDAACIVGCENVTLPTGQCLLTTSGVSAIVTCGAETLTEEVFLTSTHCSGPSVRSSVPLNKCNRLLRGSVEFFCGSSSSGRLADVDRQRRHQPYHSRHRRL
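Detergent-free condition (0.00005% Triton X-100) in acetate buffer pH 5.5 with DTT. 1.5 nM enzyme and compound were pre-mixed 15 min, then 2 uM Z-FR-AMC substrate added; reaction progress from fluorescence change between first and third reads (60 s).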
Cruzain inh Det: blocks cruzain activity in presence of Triton detergent. Potency, µM, for inactives: max response, negative = inhibition, most hits filed as inhibitors. P25779. hit rate 0.43% among 200,000. purified cruzain, Z-FR-AMC fluorescence, 0.01% Triton; active = well fitted curve in the direction sought with a large enough effect; inconclusive = small, poorly fitted or top-dose-only effect, or another doubt; inactive = no such curve, though single readings can be large; an effect the other way counts as inactive or inconclusive;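 also: plate controls were neutral wells for no effect and buffer without enzyme for full effect; nearly all actives have a fitted effect of over 40% in size; top concentration of the series not given in the record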
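15 min RT preincubation of 1.5 nM cruzain with compound, then 2 uM Z-FR-AMC added; kinetic AMC fluorescence, 60 s delta. Triton X-100 0.01%, pH 5.5.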
NS1 function inh: influenza NS1 inhibition; hit rate 0.4% among 270,000; S. cerevisiae slowed by influenza A NS1, growth recovery by OD600; Potency, µM (highest dose often 46.1 µM), inactives show top-dose activity, positive = more growth; also: actives are rising curves; nearly all actives have a fitted effect of over 50% in size
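Compounds were scored for reversing the slow growth caused by influenza A NS1 in S. cerevisiae, measured by optical density at 600 nm. Assay medium contained 2% galactose at pH 6.0; NS1-free yeast of the same strain were the positive control.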
MARV entry inh: blocks Marburg virus binding to or entry into cells. hit rate 1.8% among 300,000. Potency, µM (highest dose often 37.8 µM), inactives show at the top dose activity change, negative = inhibition, most hits filed as inhibitors. AID 540276. Marburg virus pseudotyped entry inhibition, cell reporter; control for the full effect not named in the record; about a third of the inactives were read at about 46 µM; active = well fitted inhibition curve with a large enough effect; inconclusive = small, poorly fitted or top-dose-only effect, or effect the other way; inactive = flat fitted curve, though single readings scatter; tested in HEK293 cells; about a fifth of its hits are not listed in these tables; also: % is scaled to controls: 0 for no effect and ±100 for the full control effect; luciferase read-out
SARS PLP yeast: inhibitors of SARS-CoV papain-like protease in yeast. S. cerevisiae expressing SARS-CoV PLpro, growth rescue; control for the full effect not named in the record. Potency, µM (top dose mostly 32.9 µM), for the others: top-dose activity, positive = growth rescue. AID 485353. hit rate 0.19% among 330,000; also: 0% is about no effect; nearly all actives have a fitted effect of over 55% in size; growth read by luminescence after 48 h
Lassa entry inh: Lassa virus entry inhibition | hit rate 1.2% among 300,000 | Potency, µM (series often up to 37.9 µM), without a hit: top-dose activity change, negative = inhibition, usual class: inhibitors | Lassa virus pseudotype entry inhibition, cell reporter; control for the full effect not named in the record; active means well fitted inhibition curve with a large enough effect; inconclusive means small, poorly fitted or top-dose-only effect, or effect the other way; inactive means flat fitted curve, though single readings scatter; tested in HEK293 cells; also: % is scaled to controls: 0 for no effect and ±100 for the full control effect; nearly all actives have a fitted effect of over 50% in size; luciferase read-out
RE007 growth inh: less growth of the S. pombe RE007 Vpr strain; S. pombe RE007 Vpr strain, BacTiter-Glo ATP luminescence, 24 h; control for the full effect not named in the record; AID 651644; Potency, µM (highest dose often 92.2 µM), inactives show top-dose activity change, negative = less growth; hit rate 0.21% among 360,000; active = well fitted falling curve with a large enough effect; inconclusive = small, poorly fitted or top-dose-only effect; inactive = no such curve, though single readings can be large or run the other way;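 also: % is scaled to controls: 0 for no effect and ±100 for the full control effect; nearly all actives have a fitted effect of over 50% in size; the assay follows cell death caused by Vpr and the record does not say whether a fall means rescue or toxicity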
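Fission yeast strain RE007, carrying one chromosomally integrated HIV-1 vpr copy, was seeded at OD 0.01 in PMG+AL medium with 23 nL pinned compound. After 24 h at 30 °C and 99% humidity, viability was read by BacTiter-Glo luminescence.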
An asterisk follows results filed as active; u = inconclusive; x = no result given; & = joins results of further samples; [ ] = remark or other dose. Unless noted, calls follow the shape of the dose curve; as a rule, active means well fitted rising curve with a large enough effect; inconclusive means small, poorly fitted or top-dose-only effect; inactive means no such curve, though single readings can be large or run the other way. Potency is read from the fitted curve at half-maximal effect.

molecule,NS1 function inh,Lassa entry inh,Cruzain inh Det,SARS PLP yeast,2A StopGo,RE007 growth inh,MARV entry inh,Cruzain noTriton
CC(C)(C)NC(=O)CC1C(=O)NCCN1Cc1c(F)cccc1Cl (stereo unspecified),4%,-7%,x,1%,4%,-13%,2%[46.1 µM],x
Cn1cc(CNCCCn2ncc3ccccc32)c(-c2ccccc2F)n1,1%,x,x,0%,-7%,-8%,x,x
Oc1ccccc1C1NCc2ccccc2-n2cccc21 (stereo unspecified),-1%,-23%[46.1 µM],x,0%,17%,-24%,u,x
CC(Oc1cccc(Cl)c1)C(=O)Nc1ccccc1C(=O)N1CCCCC1 (stereo unspecified),x,u,x,-4%,-25%,9%,-23%,x
CCOc1cccc2sc(NC(=O)c3ccc(S(=O)(=O)N4CCCc5ccccc54)cc3)nc12,x,1%[46.1 µM],-2.1%,x,-17%,x,x,2µM*
CCOC(=O)C(Cc1ccc(OC)c([N+](=O)[O-])c1)NC(=O)CCC(=O)Nc1ccc(C)cc1 (stereo unspecified),-6%,19%,x,0%,-7%,5%,5%,x
CCOC(=O)c1ccc(NC(=O)CNC(=O)C2CCCCC2)cc1,u,7%,7.0%,-5%,x,0%,7%,1%
COc1ccc(NC2CCCCC2NS(=O)(=O)c2ccc(C)cc2)cc1 (stereo unspecified),-14%,x,x,1%,15%,-1%,x,x
CCn1c(=O)c2cc(S(=O)(=O)NCCOc3ccccc3)ccc2n(CC)c1=O,-9%,0%,1.0%,4%,20%,-1%,2%,-2%
Cc1c(CCC(=O)N[C@@H](C)C(=O)O)c(=O)oc2cc3occ(-c4ccccc4)c3cc12,1%,x,x,-1%,-2%,-1%,0%,x
c1ccc(-c2ccc(-c3cnc4n3CCCCC4)cc2)cc1,-15%,u,-3.7%,11%,-7%,u,u,-22%
Cc1ccc(S(=O)(=O)N2CCC(c3ccncc3)CC2)c(C)c1,x,u,1.3%,x,0%,x,x,25%
Cc1cc(NC(=O)c2sc(Nc3cccc(C(F)(F)F)c3)nc2N)no1,-7%,u,-5.2%,-9%,u,21%,u,u
Cn1c(=O)c2ccccc2n(Cc2ccccc2Cl)c1=O,10%,11%[46.1 µM],x,2%,-23%,18%,-6%[46.1 µM],x
Nn1cc(-c2ccccc2)nc1SCC(=O)Nc1ccc(S(N)(=O)=O)cc1,2%,x,x,1%,7%,17%,x,x
CC(NC(=O)COC(=O)c1ccc[nH]c1=O)c1ccccc1 (stereo unspecified),x,2%[46.1 µM],x,0%,-6%,-18%,0%[46.1 µM],x
CC1=NN(C(=O)c2cccc(Cn3nc(C)c([N+](=O)[O-])c3C)c2)C(O)(C(F)(F)F)C1 (stereo unspecified),8%,-14%,-1.4%,0%,-11%,1%,-2%,-10%
Cc1oc(-c2cc(F)cc(F)c2)nc1CN1CCSCC1,-1%,18%[46.1 µM],x,-1%,u,-17%,-1%[46.1 µM],x
O=c1cc(N2CCOCC2)[nH]c(=O)n1C1CCCCC1,1%,4%,4.5%,-4%,-9%,17%,9%,1%
O=C1N/C(=N/O)S/C1=C/c1cccnc1,8%,u,x,0%,18%,-8%,-2%,x
O=C(O)Cc1ccc(NC(=S)Nc2ccc(Br)cc2Cl)cc1,6%,x,x,-1%,3%,6%,x,x
COc1ccc(CCNC(=O)CCC(=O)c2cccs2)cc1OC,x,1%,x,3%,-29%,42%,29%,x
C=C(C)C(=O)NC1=NN(c2ccccc2)C(=O)C1,u,27%,-4.0%,10%,-8%,-12%,19%,-2%
COC(=O)N/N=C/c1cn(Cc2ccccc2F)c2ccccc12,0%,-27%,x,-2%,-28%,18%,u,x
CCOC(=O)c1c(C)sc2c1N(C(C)=O)c1cc(Cl)ccc1S2,-11%,-14%,-3.4%,-10%,u,-25%,-7%,6%
CC(C)(C)N(CC#CCC(O)(c1ccccc1)c1ccccc1)CCO,-1%,x,x,0%,-5%,18%,x,x
O=C(CC1CCCC1)Nc1nc2ccccc2[nH]1,-10%,-13%,1.3%,8%,28%,5%,u,-9%
Cc1ccc(C(=O)CSc2nc3cccnc3n2C)cc1,-2%,-1%,-0.3%,-4%,-3%,u,7%,-5%
COC(=O)C(C(=O)OC)C(CC(=O)c1ccc(Br)cc1)c1ccccc1 (stereo unspecified),x,u,x,x,-13%,2%,11%,x
CC(C)(C)S(=O)(=O)c1ccsc1C(=O)O,-2%,0%,0.6%,4%,-9%,13%,1%,9%
CCCN(CC(=O)Nc1cccc(Br)c1)CC(=O)Nc1ccc(F)c(F)c1F,-10%,-21%,-11%,-22%,-12%,5%,u,11%
Cc1ccc(CNC(=O)c2cc(-c3cc(C)cc(C)c3O)n[nH]2)cc1,2%,x,x,0%,-10%,4%,1%,x
CCOC(=O)C1C(=O)NC(c2ccccc2)=NC1c1ccc(Br)cc1 (stereo unspecified),x,13%,x,-3%,-5%,-8%,-1%[46.1 µM],x
COc1ccc(OCC(=O)NCCCN2CCOCC2)cc1,4%,-2%,1.3%,15%,0%,14%,23%,-26%
COCCn1cnc2c1c(=O)n(Cc1c(F)cccc1Cl)c(=O)n2Cc1ccccc1,-19%,u,x,-3%,-13%,-8%,-27%[46.1 µM],x
O=C(CNC(=O)c1ccc2c(c1)OCO2)Nc1ncccc1O,x,u,x,4%,10%,-7%,u,x
Cc1onc(-c2ccc(F)cc2F)c1C(=O)Nc1cccc(C(F)(F)F)c1,x,-14%[46.1 µM],-6.8%,x,u,x,x,-6%
O=C(NCCc1c[nH]c2ccccc12)C(F)(F)C(F)F,5%,u,0.7%,0%,11%,-9%,9%,-10%
Cc1nc2ccc(F)cc2cc1C(=O)Nc1ccc(Cl)c(Cl)c1,0%,-18%,-1.6%,-1%,-19%,21%,-14%,0%
Cc1nc2ccccn2c1/C(O)=C1\C(=O)C(=O)N(CCN(C)C)C1c1ccco1 (stereo unspecified),5%,14%[46.1 µM],x,0%,-6%,6%,17%[46.1 µM],x
CC(=O)N1c2ccc(S(=O)(=O)N3CCCC(C(=O)Nc4cccc(F)c4)C3)cc2CC1C (stereo unspecified),10%,x,x,-2%,u,19%,x,x
CSc1nnc(NC(=O)c2cc(=O)c3cc(C)c(C)cc3o2)s1,x,u,-1.7%,x,-20%,x,3%[46.1 µM],26%
Cc1ccc2nc(NCCCN3CCOCC3)c(C=NCCCN3CCOCC3)c(=O)n2c1,-3%,12%,-6.2%,-5%,29%,16%,0%,u
CCSc1ccc2nnc(-c3cccc(F)c3)n2n1,-40%,-1%,-4.5%,0%,-18%,7%,-15%,1%
CCn1nc(C)c(NC(=O)CC23CC4CC(CC(C4)C2)C3)c1C,-10%,u,-1.2%,-2%,u,0%,-18%,13%
O=C1N(CN2CCN(c3cccc(Cl)c3)CC2)c2ccccc2C12OCCCO2,14%,22%,0.0%,6%,-14%,2%,6%,-2%
Cc1ccc(-n2nc3c(=O)n(C(C)C(=O)NCc4ccc(OC(C)C)cc4)nc(C)c3c2C)cc1 (stereo unspecified),x,u,-5.9%,x,0%,x,x,9%
COC(=O)c1[nH]c2cccc(OC)c2c1NC(=O)CN(C)CC1OCCO1,20%,2%,3.9%,2%,8%,9%,28%,6%
COc1ccc(NS(=O)(=O)c2cc(S(C)(=O)=O)ccc2C)cc1,6%,5%,0.7%,24%,73%[activator],4%,2%,-4%
CS(=O)(=O)NCc1nnc(SCc2c(F)cccc2Cl)o1,-1%,u,x,0%,20%,13%,19%[46.1 µM],x
CCNc1nc(SCC(=O)Nc2ccc(Cl)c(Cl)c2)nc(N2CCOCC2)n1,9%,-30%[46.1 µM],x,-1%,u,10%,u,x
O=C(Nc1ccc(Cl)c(Cl)c1)Nc1cc(C(=O)N2CCOCC2)ccc1N1CCCCC1,-59%,-7%,x,x,-10%,-8%,-1%&2%,x
COc1ccc(CNC(=O)Nc2cn(CC(C)C)c(=O)c3ccccc23)c(OC)c1,x,30%[46.1 µM],-15%,x,2%,x,u,-2%
Cc1nc(SCc2cccnc2)[nH]c(=O)c1C,-6%,x,x,4%,10%,-9%,x,x
CC(C)CCNC(=O)c1ccc2c(c1)NC(=O)C(C(C)C)N2 (stereo unspecified),x,-4%[46.1 µM],-4.4%,x,-3%,x,17%[46.1 µM],-5%
O=C(Cc1ccccc1)NNC1CC(=O)N(c2ccc(Cl)cc2)C1=O (stereo unspecified),5%,u,x,0%,-3%,1%,7%,x
COCCCn1c(=O)c2sccc2n(Cc2cc(C(=O)OC)ccc2OC)c1=O,-14%,x,x,1%,18%,4%,x,x
c1ccc(OCCSc2nnnn2-c2ccccc2)cc1,-48%,u,-7.4%,-14%,16%,-1%,u,-3%
O=C(c1cccc(C(F)(F)F)c1)N1CCCCCC1,5%,5%,1.6%,3%,-5%,2%,23%,-5%
Cc1cc(C)nc(NC(=S)Nc2cccc(F)c2)c1,-6%,1%,x,2%,26%,3%,3%,x

(further entries)
molecule,NS1 function inh,Lassa entry inh,Cruzain inh Det,SARS PLP yeast,2A StopGo,RE007 growth inh,MARV entry inh,Cruzain noTriton
Cc1onc(-c2c(Cl)cccc2Cl)c1C(=O)NCc1cccs1,-13%,2%,0.3%,11%,-28%,17%,u,2%
O=C(NNC(=O)c1ccccc1OCc1ccccc1)c1ccccc1O,-6%,-2%[46.1 µM],x,u,8%,10%,-23%[46.1 µM],x
CCc1nnc(NC(=O)CSc2nnc(CNC(=O)c3ccccc3F)n2C)s1,14%,-1%[46.1 µM],x,1%,-9%,10%,3%[46.1 µM],x
O=C(Oc1cccc(/C=N/Nc2nc(Nc3ccccc3)nc(N3CCOCC3)n2)c1)c1ccco1,u,u,-5.9%,-15%,0%,1%,u,u
Cc1ccc(NC(=O)C2CCCN2C(=O)OCc2ccccc2)c(C)c1 (stereo unspecified),-1%,x,x,-2%,-18%,20%,x,x
CC#CCCCC(=O)Nc1ccc(C(=O)O)cc1,-5%,29%,4.8%,6%,21%,3%,13%,-2%

Screening data deposited in PubChem BioAssay by National Center for Advancing Translational Sciences (NCATS).

Compounds as they come; overall some 4.7% were active at least once.
